PINK1 modulator: A Quantitative High throughput Screen to Identify Chemical Modulators of PINK1 Expression; PINK1 immunofluorescence, high-content cytometry, 24 h; Potency, µM (highest dose often 76.6 µM), inactives show at the top dose activation (PINK1 increase), actives largely listed as activators; 410,000 compounds, 0.2% hits; AID 624263, 2012; active = well fitted activation curve with a large enough effect; inconclusive = small, poorly fitted or top-dose-only effect; inactive = flat fitted curve, though single readings scatter; cell line not stated here;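 note: potency is the fitted concentration of half-maximal effect; % of control where 0% means no effect; nearly all actives have a fitted effect of over 65% in size; a mitochondrial uncoupler was the plate control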
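Decision-based qHTS: stable cells, 24 h exposure to five compound concentrations, CCCP as control. Fixed cells stained for PINK1 plus nuclear, mitochondrial and cell markers, cytometer read.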
TRPML1 blocker: qHTS for Inhibitors of the Human Mucolipin Transient Receptor Potential 1 (TRPML1) | TRPML1-inducible cells, Ca2+ dye fluorescence, FDSS; active compounds read low; inhibition of EC80 agonist-evoked calcium signal | Mucolipin-1 (Homo sapiens), Q9GZU1 | activity change, negative = inhibition, % (concentration not given with the values) | 390,000 compounds, 0.02% hits; in the data active means activity change below about -50%; inconclusive means about -30% to -50%; inactive means above about -30%;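 note: stimulus is agonist 54-4 at its EC80 concentration; % is set by controls: 0 for no effect and ±100 for the full control effect; the text of the record puts the active cut at -80%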
Target sequence (Q9GZU1 whole entry, looked up): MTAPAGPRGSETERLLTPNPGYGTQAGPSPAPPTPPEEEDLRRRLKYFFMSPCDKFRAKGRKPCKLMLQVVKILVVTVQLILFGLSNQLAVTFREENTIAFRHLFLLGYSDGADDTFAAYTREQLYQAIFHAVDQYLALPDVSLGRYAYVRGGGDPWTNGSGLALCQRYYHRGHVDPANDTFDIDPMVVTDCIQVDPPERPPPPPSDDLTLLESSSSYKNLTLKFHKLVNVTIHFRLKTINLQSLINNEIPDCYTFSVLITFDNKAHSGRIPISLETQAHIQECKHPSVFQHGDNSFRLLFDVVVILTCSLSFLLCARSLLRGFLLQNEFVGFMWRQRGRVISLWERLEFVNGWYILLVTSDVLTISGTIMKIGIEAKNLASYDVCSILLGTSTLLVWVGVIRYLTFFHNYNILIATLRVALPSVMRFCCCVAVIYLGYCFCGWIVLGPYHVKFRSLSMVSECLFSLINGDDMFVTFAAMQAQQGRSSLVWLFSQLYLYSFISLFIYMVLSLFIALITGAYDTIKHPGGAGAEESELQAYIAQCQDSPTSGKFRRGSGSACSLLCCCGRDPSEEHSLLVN
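Tet-induced TRPML1-DL cells loaded with Ca8 no-wash calcium dye were read kinetically on FDSS. Compound addition was followed by EC80 agonist 54-4 (4 uM final); inhibition was read over 110 s.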
D2 ag: Beta-Arrestin HTS for Positive Allosteric Modulators of the Human D2 Dopamine Receptor: Agonists. DiscoveRx PathHunter D2 beta-arrestin, luminescence, 90 min; 100% = 57 uM dopamine signal. activation, % (no concentration beside the values). 360,000 compounds, 0.084% hits; in the data active = activation above about 40%; inconclusive = about 15% to 40%; inactive = below about 15%; note: compound concentration not given in the record; the text of the record calls up to 30% inactive
Target sequence (P14416 whole entry, looked up): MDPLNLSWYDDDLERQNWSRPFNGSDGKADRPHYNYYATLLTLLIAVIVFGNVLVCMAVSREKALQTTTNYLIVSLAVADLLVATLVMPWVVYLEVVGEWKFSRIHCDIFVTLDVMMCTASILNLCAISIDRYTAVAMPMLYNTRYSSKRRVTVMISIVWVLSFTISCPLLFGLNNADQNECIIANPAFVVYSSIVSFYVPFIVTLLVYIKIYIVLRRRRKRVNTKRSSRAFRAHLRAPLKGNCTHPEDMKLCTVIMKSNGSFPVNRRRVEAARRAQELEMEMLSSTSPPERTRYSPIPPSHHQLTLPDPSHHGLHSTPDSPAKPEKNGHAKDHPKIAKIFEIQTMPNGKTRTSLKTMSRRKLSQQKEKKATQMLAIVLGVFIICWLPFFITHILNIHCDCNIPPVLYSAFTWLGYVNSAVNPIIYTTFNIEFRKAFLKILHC
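DiscoveRx PathHunter D2 beta-arrestin cells (2,100/well) attached overnight, then compound-stimulated 90 min at 37 C in HBSS/10 mM HEPES/0.1% Tween-20 buffer; beta-galactosidase complementation read by luminescence after 1 h at ambient temperature. Dopamine 57 uM final (EC100) as control.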
TRPML1 ag: qHTS for Agonists of the Human Mucolipin Transient Receptor Potential 1 (TRPML1) | Mucolipin-1 (Homo sapiens), Q9GZU1 | activation, % (concentration not given with the values) | AID 624414, 2012 | 410,000 compounds, 0.12% hits | TRPML1-expressing cells, Ca2+ dye fluorescence, FDSS; host cell line not named in the record; reference of the full effect not given here; in the data active = activation above about 50%; inconclusive = about 30% to 50%; inactive = below about 30%; note: 0% is about no effect; the text of the record puts the active cut at 80%
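Tetracycline-induced TRPML1-DL cells are seeded and incubated overnight before loading with a no-wash Ca2+ dye and quencher. Agonist activity is taken from the 110 s fluorescence read following compound pin-transfer on an FDSS, before EC80 54-4 challenge.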
Six1-Eya2 blk: qHTS Assay for Inhibitors of the Six1/Eya2 Interaction. Homeobox protein SIX1 (Homo sapiens) + Protein phosphatase EYA2 (Homo sapiens), …. AID 651725, 2012. 360,000 compounds, 0.56% hits. activity change, % (test concentration not listed). AlphaScreen GST-Six1/His-Eya2 binding, biochemical; active compounds read low; control for the full effect not named in the record; in the data active = activity change below about -65%; inconclusive = about -30% to -65%; inactive = above about -30%; note: % is set by controls: 0 for no effect and ±100 for the full control effect
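Compounds are tested against tagged Six1 and Eya2 proteins bridged by glutathione donor and nickel acceptor beads; after a one-hour incubation at 37 °C without light, AlphaScreen emission is recorded.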
CtBP-E1A blk: qHTS Assay for Inhibitors of the CtBP/E1A Interaction; CtBP / adenovirus E1A interaction (AlphaScreen); AlphaScreen GST-E1A/His-CtBP binding, 1536-well; active compounds read low; control for the full effect not named in the record; activity change, % (concentration not given with the values); 340,000 compounds, 0.49% hits; AID 651724, 2012; in the data active means activity change below about -65%; inconclusive means about -30% to -65%; inactive means above about -30%; note: % is set by controls: 0 for no effect and ±100 for the full control effect
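Protein mix (5X: 125 nM each GST-E1A, His-CtBP) was incubated with pinned compound 2 h at 37 deg C in dark, in 50 mM Tris pH 8.0 buffer with 300 mM NaCl. Glutathione donor and nickel acceptor beads followed; AlphaScreen signal read after 1 h.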
* = called active by the depositor; ? = inconclusive; · = no result given; [ ] = remark or other dose. Not a hit list (roughly 1% active in at least one column).

mol	PINK1 modulator	TRPML1 blocker	D2 ag	TRPML1 ag	Six1-Eya2 blk	CtBP-E1A blk
COc1cccc(OC2(C)CCN(Cc3cccn3-c3nccs3)C2)c1 (configuration not stated)	1.9%	·	-2.2	-0.4	?	-22
CCn1cc(/C=N/O)c(C)n1	-0.5%	-2	0.0	2.2	3	7
CC(C)NC(=O)c1ccccc1NC(=O)C(C)Oc1ccccc1 (configuration not stated)	2.8%	10	-0.4	-1.1	0	-2
Cc1cc(C)c(S(=O)(=O)N2CCCc3ccccc32)c(C)c1	3.2%	·	-3.0	·	3	·
Cc1cc(C(F)(F)F)nn1CC(=O)Nc1ccc(Br)c2cccnc12	8.5%	4	-1.7	4.0	0	6
C=CCn1c(SCC(=O)Nc2cc3oc4ccccc4c3cc2OC)nnc1-c1cnccn1	-0.4%	7	2.1	2.4	-9	4
CCOC(=O)c1c(NC(=O)c2ccco2)sc2c1CCCC2	10%	52	-2.9	2.1	3	3
Nn1cnc2c(c1=O)C1(CCCCC1)Cc1ccccc1-2	5.1%	-14	-0.8	0.7	14	12
Cc1c(Cl)cccc1-n1ncc(C(=O)Nc2ccc(Br)cc2F)c1C1CCNCC1	3.9%	5	·	3.5	·	·
Cc1ccc(SC(C)C(=O)Nc2ccccc2C(=O)N2CCOCC2)cc1 (configuration not stated)	0.8%	9	-3.7	4.9	2	3
O=C(Oc1ccc2c(=O)c(Oc3ccc4ccccc4c3)coc2c1)c1cncc(Br)c1	-0.8%	56	-1.0	0.0	0	-2
Cc1ccc(CCNC(=O)c2cc(-c3ccc(Cl)cc3)n[nH]2)cc1	0.0%	4	·	0.4	·	·
N#Cc1ccc(CSc2nnc(-c3cccs3)n2-c2ccccc2)cc1	-3.0%	15	-1.0	5.8	-3	-3
CCS(=O)(=O)Nc1ccc(C(=O)CC2(O)C(=O)Nc3ccccc32)cc1 (configuration not stated)	-0.5%	19	-1.2	1.6	6	-3
O=C(Nc1ccc2c(c1)C(=O)NC2=O)c1ccc(Cl)s1	-1.2%	-9	-7.1	-1.2	7	0
O=C(CN1CCN(c2ccccc2)CC1)Nc1ccncc1	-0.1%	·	?	·	-3	·
NC(=O)COC(=O)CCCc1nc2ccccc2s1	1.9%	-1	-5.1	0.0	6	6
Cc1ncc(CO)c(/C=N/NC(=O)c2ccoc2C)c1O	-1.2%	-9	-9.4	0.5	-82*	-87*
CC(C)(C)C(=O)N1CCN(c2ccc([N+](=O)[O-])cc2Cl)CC1	-0.7%	23	0.1	2.3	-1	-3
[2H]C(CCOS(N)(=O)=O)c1ccccc1 (configuration not stated)	2.1%	-11	0.3	-0.6	-2	0
O=[N+]([O-])c1ccc(C=NNc2ccccc2)cc1	2.5%	10	-4.0	5.7	?	?
COc1ccccc1Cc1nc2ccccc2nc1SCC(=O)Nc1ccccc1C(F)(F)F	-1.1%	-2	·	2.1	·	·
COc1ccc(CNC(=O)c2cc3c(=O)n(C)c4ccccc4c3n2C)c(OC)c1	3.0%	23	·	0.0	·	·
Cc1ccccc1NC(=O)CN1CCN(C(=O)c2ccco2)CC1	1.6%	-9	11	-0.5	2	3
O=c1cc(Nc2ccc3c(c2)OCCO3)[nH]c(=O)n1Cc1ccc(F)cc1	·	2	1.0	-0.3	15	39
O=C(Cc1ccc(Cl)cc1)NNc1c(F)c(F)cc(F)c1F	?	38	-6.3	0.7	-13	-6
CC(C)NC(=O)C1(C)CCCN1C(=O)c1ccc2c(c1)C(C)(C)CCC2(C)C (configuration not stated)	1.0%	19	-3.4	-0.6	-2	7
O=C(CN1C(=O)NC2(CCCC2)C1=O)Oc1ccc2ccc(=O)oc2c1	0.6%	-11	-0.2	-1.1	-3	·
O=C(Cn1cnc2c(OCc3ccccc3)ncnc21)NCC1CCCO1 (configuration not stated)	0.6%	0	-1.4	-0.5	2	7
O=C1CC(Sc2nnnn2C2CCCCC2)C(=O)N1c1ccccc1 (configuration not stated)	1.7%[38.3 µM]	7	0.1	0.1	0	1

New compounds follow.
mol	PINK1 modulator	TRPML1 blocker	D2 ag	TRPML1 ag	Six1-Eya2 blk	CtBP-E1A blk
COc1ccccc1-c1nc(SCC(=O)N2CCC(C(N)=O)CC2)n[nH]1	-0.6%	21	-1.4	-0.7	-1	11
COC(=O)c1noc(C)c1-c1ccnn1C(=O)c1ccc(Cl)cc1	3.5%	-9	-4.0	-0.7	5	·
Cc1ccc(N2CC(C(=O)NC3=NCCS3)CC2=O)cc1 (configuration not stated)	-1.0%	6	2.1	0.8	1	3
O=C(CNC(=O)c1nc[nH]c1C(=O)NCc1ccccc1)OCc1ccccc1	0.6%	-4	?	3.8	-1	-1
C=CCCCCCCCCC(=O)NN	4.1%[38.3 µM]	-9	-2.3	0.0	7	-1
CCCCC(=O)NC1=C(C(=O)OC)SCC1	-0.4%	-14	-2.3	0.9	-7	-10
CCOc1ccc(S(=O)(=O)N2CCCC(C(=O)NCc3cccnc3)C2)cc1Cl (configuration not stated)	-0.2%	-17	-1.9	-0.6	7	-3
COc1ccc(S(=O)(=O)Nc2cc3c4c(c2)CCN4C(=O)CC3)cc1OC	-0.2%	6	-4.0	-0.1	-7	1
Cc1c2cnn(-c3ccccc3)c(=O)c2c(C)n1CCCC(=O)Nc1cccc(F)c1	0.7%	-1	·	-0.7	·	·
CC(C)CC(=O)Nc1ccc(C(=O)CN2C(=O)NC3(CCOc4ccccc43)C2=O)cc1 (configuration not stated)	2.5%	-4	2.1	0.1	-1	-20
O=C(CN1CCN(C2CCCCC2)CC1)c1c[nH]c2ccccc12	-2.0%	-8	-1.9	3.0	0	-1
COc1ccc(N2CCN(CCNC(=O)Nc3ccc(C)c(Cl)c3)CC2)cc1	-1.0%	-23	-5.3	0.0	-13	·
Cc1noc(NS(=O)(=O)c2ccc(NC(=O)c3ccccc3NS(=O)(=O)c3ccc(F)cc3)cc2)c1C	1.5%	-13	3.1	-0.6	-1	-12
O=C(NCc1cc(Cl)cc(Cl)c1)c1ccc2sc([C@@H]3O[C@H](CO)[C@H](O)[C@H](O)[C@H]3O)nc2c1	-0.5%	23	-8.6	-0.2	-25	-24
OCCN(CCO)CC(O)CN(c1ccccc1)c1ccccc1 (configuration not stated)	-1.2%	2	-3.2	-0.1	4	2
CCS(=O)(=O)c1ncc(Cl)c(C(=O)N2CCN(c3cccc(Cl)c3)CC2)n1	-0.6%	-7	·	9.7	·	·
CCCCCCSc1cc(-c2nc3ccc(Cl)cn3c2NC2CCCCC2)ccc1OC	6.0%	33	0.2	0.2	11	6
O=C(CN1C(=O)NC2(CCCc3ccccc32)C1=O)NCC(F)(F)F (configuration not stated)	-2.4%	1	2.6	-0.1	-4	13
CN1CCN(C(=O)c2cccc(-c3ccc4nncn4c3)c2)CC1	1.0%	·	-2.4	-0.4	1	6
CCC(O)(C(=O)Nc1ccccc1C(F)(F)F)c1ccccc1OC (configuration not stated)	0.5%	-7	0.7	0.9	11	-21
COCCOC(=O)c1c(NC(=O)CN2CCCc3ccccc32)sc(C(N)=O)c1C	7.7%	23	2.0	1.8	-8	-5
O=S(=O)(c1ccc(NCc2ccccc2)cc1)N1CCOCC1	-0.8%	-5	0.2	-0.4	-2	0
CC1CCN(C(c2ccccc2)c2nnnn2C(C)(C)C)CC1 (configuration not stated)	-2.0%	5	-0.9	0.6	6	-12
CNC(=O)c1c(NC(=O)c2ccc3ncsc3c2)sc(C)c1C	1.3%	12	-7.2	-0.7	-9	0
COc1ccc(CCN2CC(=O)NC(=O)C2)cc1OC	0.0%	-9	-0.7	-0.6	3	-2
CO[C@H]1CC[C@@]2(C)[C@@H](CC[C@@H]3[C@@H]2CC[C@@]2(C)[C@H]3C[C@H](C(=O)O)O[C@]23CCCO3)C1	-0.8%	3	-1.9	0.0	-2	0
Nc1c(N(CCCO)C(=O)CCCN2C(=O)c3cccc4cccc(c34)C2=O)c(=O)[nH]c(=O)n1Cc1ccccc1	4.0%	-14	-0.8	0.2	-8	-1
COc1ccc(C2c3c(ncn(CCN4CCOCC4)c3=N)Oc3ccc4ccccc4c32)cc1 (configuration not stated)	-1.5%	28	2.3	0.5	-16	-30
OCCCN=c1cc(-c2ccccc2)oc2ccc(Cl)cc12	-1.1%	6	-4.0	-2.0	-2	10
CCc1nnc(NC(=O)CSc2nnc(CNc3ccc(OC)cc3)n2CC)s1	-1.7%	-6	-3.3	3.9	-5	-15

An excerpt of these results, field by field:
COc1ccc(N2CCN(CCNC(=O)Nc3ccc(C)c(Cl)c3)CC2)cc1
  PINK1 modulator: -1.0%
  TRPML1 blocker: -23
  D2 ag: -5.3
  TRPML1 ag: 0.0
  Six1-Eya2 blk: -13
  CtBP-E1A blk: ·
CCC(O)(C(=O)Nc1ccccc1C(F)(F)F)c1ccccc1OC (configuration not stated)
  PINK1 modulator: 0.5%
  TRPML1 blocker: -7
  D2 ag: 0.7
  TRPML1 ag: 0.9
  Six1-Eya2 blk: 11
  CtBP-E1A blk: -21
O=C(CNC(=O)c1nc[nH]c1C(=O)NCc1ccccc1)OCc1ccccc1
  PINK1 modulator: 0.6%
  TRPML1 blocker: -4
  D2 ag: ?
  TRPML1 ag: 3.8
  Six1-Eya2 blk: -1
  CtBP-E1A blk: -1
COc1ccc(S(=O)(=O)Nc2cc3c4c(c2)CCN4C(=O)CC3)cc1OC
  PINK1 modulator: -0.2%
  TRPML1 blocker: 6
  D2 ag: -4.0
  TRPML1 ag: -0.1
  Six1-Eya2 blk: -7
  CtBP-E1A blk: 1

The list continues:
mol	PINK1 modulator	TRPML1 blocker	D2 ag	TRPML1 ag	Six1-Eya2 blk	CtBP-E1A blk
CN(C(=O)c1cnc(N2CCOCC2)c2ccccc12)c1ccccc1F	-0.2%	-11	·	-0.5	·	·
O=C1c2ccccc2NC(c2ccc3c(c2)OCCO3)N1c1ccc2c(c1)OCCO2 (configuration not stated)	1.9%	2	-0.6	-0.6	0	6
COc1ccc(OCC(=O)Nc2cc(OC)ccc2N2CCCCC2)cc1	6.0%	22	-3.1	1.0	-10	2
O=C(c1ccc(CS(=O)c2ccccc2Cl)o1)N1CCN(c2ccccc2F)CC1 (configuration not stated)	8.2%	8	·	-0.2	·	·
Cc1cc(C(=O)Nc2cccc(C(=O)O)c2)c(C)o1	-0.4%[38.3 µM]	7	-3.4	0.0	-3	2
O=C(NCCc1ccc(Cl)cc1)Nc1cccc(Cl)c1	?	7	0.1	0.5	14	8
COc1ccc(Nc2nnc(SCC(=O)N(CC(C)C)C3CCS(=O)(=O)C3)s2)cc1 (configuration not stated)	2.8%	-13	-7.5	-0.1	-18	-17
CCOC(=O)C1(Cc2ccccc2C)CCCN(S(=O)(=O)CC)C1 (configuration not stated)	1.5%	24	-7.2	0.2	2	-1
S=c1[nH]nc(-c2ccncc2)n1Cc1ccco1	0.2%[38.3 µM]	1	2.1	-0.5	0	2

Screening results as filed in PubChem BioAssay.
